Screening data deposited in PubChem BioAssay by National Center for Advancing Translational Sciences (NCATS).
A488 fluor – qHTS Assay for Spectroscopic Profiling in A488 Spectral Region; actives 0.1% (n = 59,000); compound autofluorescence, A488 spectral region, dye equivalency; active compounds read high; max dye equivalency, M; active = above 10 nM dye equivalent; inconclusive = 1 to 10 nM; inactive = 1 nM or less; about half of its hits are not listed in these tables;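 further: highest value over a series up to 38 µM; compound alone in buffer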
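Spectroscopic profiling in the A488 region: compounds in pH 8.0 Tris (100 mM), 15 min RT, CCD imaging with 480 nm excitation and 540 nm emission; responses normalized against A488 dye standards.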
AID923 – qHTS Assay for Allosteric/Competitive Inhibitors of Caspase-1: Spectroscopic Profiling in AFC Spectral Region; compound fluorescence, AFC spectral region (405/520 nm); almost no hit is shown here; Potency, µM (top dose mostly 57.5 µM), inactives show top-dose fluorescence increase, usual class: activators; actives 1.1% (n = 75,000); AID 923, 2007; active means well fitted activation curve with a large enough effect; inconclusive means small, poorly fitted or top-dose-only effect;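 further: potency means the concentration at half of the fitted maximal effect; 0% is about no effect; scaled to a free AFC standard on each plate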
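Titrations up to 57 uM read every 20 sec for 3 min (405/520 nm) with 50 nM caspase 1 and 5 uM Ac-WEHD-AFC, pH 7.5 HEPES buffer. Fluorescence-vs-time intercept gave baseline, scaled against on-plate AFC standard.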
Resorufin autofl – qHTS Assay for Spectroscopic Profiling in Resorufin Spectral Region. Compound fluorescence, resorufin region 547/598 nm, buffer; active compounds read high. actives 0.04% (n = 59,000). AID 588, 2007. max dye-equivalent concentration, M; active = above 10 nM dye equivalent; inconclusive = 1 to 10 nM; inactive = 1 nM or less; a few of its hits are not listed in these tables; further: highest value over a series up to 38 µM
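Dye-equivalent concentration values derive from comparing each well's 547/598 nm fluorescence against resorufin standards included on every plate. Incubation was 15 min at room temperature in 100 mM Tris, pH 8.0.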
TSHR ag – qHTS Assay for Agonists of the Thyroid Stimulating Hormone Receptor; Potency, µM (doses to about 57.1 µM), for the others: at the top dose activation, most hits filed as activators; actives 0.48% (n = 73,000); Thyrotropin receptor (Homo sapiens), P16473; HEK293-CNG-TSHR cells (CNG channel as cAMP sensor), membrane potential dye, cAMP; active = well fitted activation curve of enough size with the parental cells flat; inconclusive = any curve in the parental cells; inactive = parental cells flat and receptor cells flat or falling; further: potency means the concentration at half of the fitted maximal effect; % of control where 0% means no effect; weak receptor curves with flat parental cells got no call and are not listed
Target sequence (P16473 whole entry, looked up): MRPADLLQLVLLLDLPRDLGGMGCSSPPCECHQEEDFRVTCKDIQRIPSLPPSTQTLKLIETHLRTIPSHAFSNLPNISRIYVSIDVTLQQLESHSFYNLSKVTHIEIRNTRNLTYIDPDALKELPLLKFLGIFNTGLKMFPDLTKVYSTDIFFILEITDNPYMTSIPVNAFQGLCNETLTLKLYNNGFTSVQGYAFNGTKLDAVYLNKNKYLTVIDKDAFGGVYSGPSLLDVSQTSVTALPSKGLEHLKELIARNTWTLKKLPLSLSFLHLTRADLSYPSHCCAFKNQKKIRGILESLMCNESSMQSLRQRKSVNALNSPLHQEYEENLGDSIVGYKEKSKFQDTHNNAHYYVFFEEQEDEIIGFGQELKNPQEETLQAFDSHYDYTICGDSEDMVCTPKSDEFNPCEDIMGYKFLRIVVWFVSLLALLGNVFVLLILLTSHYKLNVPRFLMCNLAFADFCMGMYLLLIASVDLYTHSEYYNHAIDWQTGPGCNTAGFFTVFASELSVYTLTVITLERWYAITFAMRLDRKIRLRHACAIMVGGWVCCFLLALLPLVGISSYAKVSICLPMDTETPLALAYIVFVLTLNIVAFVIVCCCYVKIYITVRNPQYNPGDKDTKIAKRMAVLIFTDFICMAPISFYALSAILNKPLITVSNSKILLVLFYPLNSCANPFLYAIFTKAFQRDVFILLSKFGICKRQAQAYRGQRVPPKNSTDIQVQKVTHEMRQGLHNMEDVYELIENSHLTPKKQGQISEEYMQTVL
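cAMP rise detected as CNG-channel membrane depolarization by fluorescent dye (emission 590 nm), 30 min after compound, following 60 min dye loading containing 100 uM RO 20-1724 at room temperature. Cells: TSHR/CNG HEK 293, with parental CNG HEK 293 as control.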
A647 autofl – qHTS Assay for Spectroscopic Profiling in A647 Spectral Region | 59,000 tested, under 10 active | max dye-equivalent concentration, M | Compound fluorescence, A647 channel (570/671 nm), Tris buffer; active means above 1 µM dye equivalent; inconclusive means 0.1 to 1 µM; inactive means 0.1 µM or less;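 further: values scaled relative to a standard on each plate; highest value over a series up to 38 µM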
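Spectral profiling of library compounds in pH 8.0 Tris: 15 min room-temperature incubation, single ex/em pair (570/671 nm), response normalized to Alexa 647 equivalents.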
* hit, by the source's call; i = inactive; ? = inconclusive; · = not tested or not shown; & = joins results of further samples; [ ] = remark or other dose. This is a subset. The share of hits here may be higher or lower than overall.

nr | SMILES | A488 fluor | AID923 | Resorufin autofl | TSHR ag | A647 autofl
1 | CCN(CC)S(=O)(=O)c1ccc(-c2nnc(SCc3nnc(-c4ccc(C)cc4)o3)o2)cc1 | i | 0.6% | i | 21% | 1e-09
2 | O=S(=O)(c1ccc(C2CCCCC2)cc1)N1CCN(c2ncccn2)CC1 | i | -0.3% | i | · | 2.2e-08
3 | Cc1cccc(-c2nc(C#N)c(NC3CCCCC3)o2)c1 | i | · | i | · | 1e-08
4 | O=C(C1CC1)N1CCc2cc(Br)cc(S(=O)(=O)NCc3ccccn3)c21 | i | 1.8% | i | 10%[11.4 µM] | 1e-09
5 | O=S(=O)(c1ccccc1)N1CCN(CC(O)COc2ccc3c(c2)CCC3)CC1 (centres undefined) | i | -1.2% | i | 7% | 3.1e-08
6 | Cc1cccc(C)c1 | · | 0.5% | · | -7% | ·
7 | COc1ccc(C)cc1-n1nnnc1SCc1csc(C)n1 | i | -1.3% | i | -2% | 2.1e-08
8 | CC1(C)O[C@H]2[C@@H](c3[nH]nc4c(=O)[nH]c(=O)[nH]c34)OC[C@H]2O1 | i | 4.0%[11.5 µM] | i | 2%[11.4 µM] | 1e-09
9 | CCC(C)NC(=O)CSc1nc2n[nH]c(C)c2c(=N)n1-c1ccc(OC)cc1 (centres undefined) | i | 1.0% | i | 5% | 1e-08
10 | CC(C)Oc1cccc(-c2cc(C(=O)N3CCN(S(C)(=O)=O)CC3)c3ccccc3n2)c1 | i | 1.1% | i | 9% | 5.6e-09
11 | CC(=O)c1ccc(NC(=O)C2CCN(S(=O)(=O)c3cccc4cccnc34)CC2)cc1 | · | 3.1% | · | 11% | ·
12 | CCN(CC)CCCN1C(=O)CSC1c1ccc2c(c1)OCO2 (centres undefined) | i | -0.2% | i | 1%[11.4 µM] | 7.2e-09
13 | O=C1CC(c2ccc(F)cc2)C2=C(CCCC2=O)N1 (centres undefined) | i | 3.1% | i | -3% | 2.2e-08
14 | O=C(CN1C(=O)c2ccccc2C1=O)OCN1C(=O)c2ccccc2C1=O | i | · | i | · | 4.8e-09
15 | NC(=O)C(F)(F)C12OC3C4C5CC(C6C5C3C61)C42 (centres undefined) | i | 0.3% | i | 3% | 2.1e-08
16 | CCOc1ccc(-c2nn3c(-c4ccc(OC)cc4)nnc3s2)cc1 | i | · | i | · | 1e-09
17 | COc1cc2c(cc1O)CC[C@@H]1[C@@H]2CC[C@@]2(C)[C@H](O)CC[C@H]12 | i | -2.1% | i | ? | 3.1e-08
18 | CSc1ccccc1NC(=O)Cn1c(-c2cscn2)nc2ccccc21 | i | 1.9% | i | ? | 1e-09
19 | CCCOc1ccc(NC(=O)c2c(-c3ccccc3)noc2C)cc1 | · | 1.7% | · | 29% | ·
20 | CC(=O)N[C@@H](Cc1c[nH]c2ccccc12)C(=O)OCc1cc(C(F)(F)F)cc(C(F)(F)F)c1 | i | -4.0% | i | 5%&-22% | 1.3e-08
21 | CCCCC(=O)Nc1ccc(F)c(Cl)c1 | i | 1.2% | i | -2% | 2.4e-08
22 | CCc1ccc(NC(=O)C2CC=CCC2C(=O)O)cc1 (centres undefined) | · | -0.3% | · | 4% | ·
23 | COc1ccc(C(=O)N2CCCC(c3ccccc3)C2)cc1 (centres undefined) | i | · | i | · | 2.7e-09
24 | CSc1ccc(CNc2ccccn2)cc1 | i | -2.3% | i | ? | 1.5e-08
25 | CCn1c(C(=O)NCCCc2ccccc2)cc2sccc21 | · | 2.1% | · | ? | ·
26 | CCC(=NCc1ccccc1)C1=C(O)C(C(=O)OC)C(C)(C)CC1=O (centres undefined) | i | 1.7% | i | 9% | 5.9e-08
27 | COc1ccc(C2C(C#N)=C(N)Oc3n[nH]c(C)c32)cc1Cn1nnc2ccccc21 (centres undefined) | · | 2.0% | · | 9% | ·
28 | COCC1C2CC[C@H]3C(OCc4ccc(F)cc4C(F)(F)F)OC[C@]4(C)[C@H]3C2=C(CN4C(=O)OC(C)(C)C)[C@H](C)C1COC (some centres undefined) | · | 2.1% | · | ? | ·
29 | CCOC(=O)Cc1c(C)nc2c(-c3ccccc3)c[nH]n2c1=O | i | -0.9% | i | -2% | 5.2e-08
30 | Nc1nc(CSc2nnnn2-c2ccc(F)c(Cl)c2)nc(N2CCOCC2)n1 | i | 1.3% | i | 9% | 1e-09
31 | Cc1ccc2c(CSc3nc4ccccc4c(=O)n3CCCO)cc(=O)oc2c1 | i | -0.1% | i | ? | 8.2e-09
32 | CCCc1cc(=O)oc2c(CN3CCCC3)c(O)c(Cl)cc12 | i | · | i | · | 1e-09
33 | COCc1nnc(NC(=O)c2ccc(NC(=O)C(C)C)cc2)s1 | i | -0.2% | i | -1% | 6e-09
34 | CNC(=O)c1nnn(Cc2ccccc2)c1NC(=O)C(F)(F)F | i | 0.2% | i | -1% | 2.3e-08
35 | CCOC(=O)N/N=C1/C[C@@H](O)[C@@H](O)[C@@H]2[C@@H]3C(=O)N(CC)C(=O)[C@H]3CC[C@H]12 | · | -1.5%[11.5 µM] | · | 6%[11.4 µM] | ·
36 | Cn1c(=O)[nH]c(=O)c2c1nc(N1CCCCC1)n2CCCSc1nc2ccccc2s1 | i | 2.3% | i | · | 1.8e-09
37 | COc1ccccc1C(=O)NC(C)C(c1cccs1)N1CCN(C)CC1 (centres undefined) | i | 2.2% | i | -1% | 2.4e-08
38 | Cn1c(SCC(=O)Nc2ccc(N3CCOCC3)c(Cl)c2)nnc1C(O)c1ccccc1 (centres undefined) | i | -2.2% | i | 12% | 1e-09
39 | CC(Oc1ccc(Cl)cc1Cl)C(=O)N(Cc1ccco1)C1CCS(=O)(=O)C1 (centres undefined) | i | -1.3% | i | 11% | 4.9e-09
40 | Cc1c(NC(=O)CCC(=O)N2CCCCC2)c(=O)n(-c2ccccc2)n1C | i | 0.3% | i | 3%[11.4 µM] | 1e-09
41 | Cc1ccc(Cn2nnnc2CN2CCC(O)(c3ccccc3F)CC2)cc1 | i | -0.3% | i | 0% | 3.9e-08
42 | O=C(NCc1ccccc1)c1ccc(COCC(F)(F)F)o1 | i | -1.2% | i | 9% | 4.2e-09
43 | Cc1noc(C)c1C(=O)N1CCN(C(=O)c2sc3cc(Cl)ccc3c2Cl)CC1 | i | 0.6% | i | 0% | 1.5e-09
44 | CCOC(=O)c1ccccc1NC(=O)Cn1cnc2c(oc3ccccc32)c1=O | i | 1.1% | i | · | 4.7e-09
45 | COC(=O)c1ccc(C(NC(=O)OCc2ccccc2)/C(C)=C/[C@@H](C)C(=O)NC2CCCCC2)cc1 (some centres undefined) | · | -0.6% | · | ? | ·
46 | CN(C)/C=N/c1cnc(C(=O)c2ccc(Cl)cc2)n1C | i | -0.1% | i | -9% | 5.4e-09
47 | NC(=O)COc1ccc2c3c(c(=O)oc2c1)CCCCC3 | i | -0.8% | i | 7% | 1.9e-08
48 | Cc1c(C2CC(=O)N(c3ccccc3)C2=O)[nH]n(-c2ccccc2)c1=O (centres undefined) | i | · | i | · | 1e-09
49 | Cc1cnc(CNc2ncnc3ccc(-c4ccccc4C(F)(F)F)cc23)cn1 | i | 2.5% | i | ? | 1.7e-09
50 | C=CCn1c(O)c(C(CC)=NCc2cccnc2)c(=O)[nH]c1=O | i | 0.5% | i | 2% | 5.2e-09
51 | CC1=NS(=O)(=O)c2cc(Cl)ccc2N1 | i | -2.6% | i | ? | 1e-09&1e-08&1e-09
52 | O=c1cc(NCc2ccco2)c2ccccc2o1 | · | 0.3% | · | 2% | ·
53 | CCOC(=O)Cc1csc(NC(=O)c2csc3c2CCCC3)n1 | i | 1.4% | i | 9% | 1.8e-08
54 | CCOc1cccc(C(=O)Nc2ccccc2N2CCN(C(=O)C(C)C)CC2)c1 | i | -1.5% | i | ? | 2.3e-08
55 | Cc1cc(=O)oc(C)c1C(=O)n1nc(C)c2c1C[C@@H]1[C@H]2C1(C)C | i | · | i | · | 6.4e-08
56 | CN(C)Cc1nc2c(c(=O)[nH]1)C1(CCCCC1)Cc1ccccc1-2 | i | 5.5% | i | ? | 1e-09
57 | Cc1c(C(=O)NCc2ccc3c(c2)OCO3)sc2nc(-c3ccc(F)cc3)cn12 | · | 0.6% | · | 25% | ·
58 | O=C(Cn1nc(-c2ccccc2)ccc1=O)NCCN1CCN(Cc2ccccc2)CC1 | i | -0.4% | i | · | 1e-09
59 | COc1ccc2oc(=O)c(C(=O)O)cc2c1 | i | 1.9% | i | 3% | 1e-09
60 | Cc1n[nH]c(=O)nc1NCc1ccc(Cl)cc1 | i | -0.3% | i | -9% | 3.8e-09

Remaining list, next part:
nr | SMILES | A488 fluor | AID923 | Resorufin autofl | TSHR ag | A647 autofl
61 | CS(=O)(=O)N1CCN(c2ccccc2NC(=O)c2cccnc2)CC1 | i | -0.9% | i | ? | 1e-09
62 | Cn1c(-c2ccc(CN3CCCCC3)o2)nc2ccccc21 | i | 3.7% | i | -2% | 1e-09
63 | Cc1oc(-c2ccc(Cl)cc2)cc1-c1nn2c(-c3ccoc3C)nnc2s1 | i | 1.7% | i | ? | 1.4e-09
64 | CC(=O)N1CC=CC1(C)C(=O)NCc1cc(F)cc(C(F)(F)F)c1 (centres undefined) | · | -0.9% | · | -3% | ·
65 | CCN(CC)C(C(=O)Nc1ccc2c(c1)OCO2)c1ccccc1 (centres undefined) | i | -0.7% | i | 29% | 2.1e-08
66 | O=C(CSc1nnnn1Cc1ccccc1)Nc1ccc2c(c1)OCO2 | i | 0.1% | i | -2% | 1.9e-08
67 | CCCC(=O)NC1=C(C#N)C2(CCCC2)Cc2ccccc21 | i | -0.1% | i | 24% | 4.3e-08
68 | CCCn1cc(NC(=O)C2CC(c3cccc(Br)c3)=NO2)cn1 (centres undefined) | i | -1.8% | i | 24% | 2.2e-08
69 | Cn1nc(C(=O)NC2CCCCCC2)ccc1=O | i | 0.6% | i | 2% | 3.7e-09
70 | Cc1ccccc1-c1nc(CS(=O)CC(=O)NCc2ccccc2)c(C)o1 (centres undefined) | · | 2.2% | · | ? | ·
71 | Cc1ccc2nc(NC(=O)C3CCN(S(=O)(=O)c4cccs4)CC3)sc2c1 | i | 7.0% | i | 3% | 1e-09
72 | COc1ccc(C(=O)N2CCN(C3CCCCC3)CC2)c(OC)c1 | i | -2.8% | i | 7% | 1e-09

Only A488 fluor, Resorufin autofl and AID923 (4 entries from above):
cpd | mol | A488 fluor | Resorufin autofl | AID923
61 | CS(=O)(=O)N1CCN(c2ccccc2NC(=O)c2cccnc2)CC1 | i | i | -0.9%
62 | Cn1c(-c2ccc(CN3CCCCC3)o2)nc2ccccc21 | i | i | 3.7%
63 | Cc1oc(-c2ccc(Cl)cc2)cc1-c1nn2c(-c3ccoc3C)nnc2s1 | i | i | 1.7%
64 | CC(=O)N1CC=CC1(C)C(=O)NCc1cc(F)cc(C(F)(F)F)c1 (centres undefined) | · | · | -0.9%

(listing goes on)
nr | SMILES | A488 fluor | AID923 | Resorufin autofl | TSHR ag | A647 autofl
73 | Cc1nc2c(sc3nc4c(cc32)COC(C)(C)C4)c(=O)n1CC(=O)NCc1ccco1 | i | 0.9% | i | 6% | 5e-09
74 | Cn1c(=NC(=O)CSCC(=O)N2CCCCC2)sc2ccccc21 | i | -0.7% | i | 12% | 3.1e-08
75 | COc1cc(/C=N/n2cnnc2)ccc1OCCOc1ccccc1 | · | -0.2% | · | 11%[11.4 µM] | ·
76 | CCSc1nnc(NC(=O)c2ccco2)s1 | · | 0.2% | · | -1%[11.4 µM] | ·
77 | C=CCN1CC2CC3(COc4cc(C)cc(C)c4)C=CC2(O3)C1=O (centres undefined) | i | 14% | i | 13% | 1e-09
78 | CCOC(=O)c1nc(N)sc1C(=O)OCC | · | -0.1% | · | 7% | ·
79 | Cc1ccc(C(=N)c2ccccc2Cc2cccc3ccccc23)c2ccccc12 | i | -1.3%[11.5 µM] | i | 3%[11.4 µM] | 2.9e-08
